# AID504770 = growth inhibitors of E. coli YBA685 in a screen for V. cholerae RctB (chromosome II replication) inhibitors; E. coli YBA685 rctB-dependent plasmid, OD600 growth, 3 h; hits give low values; z-score (concentration not given with the values); hit rate 0.27% among 130,000; AID 504770;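 active = z-score under -2 on both plates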;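 also: wells of about 30 µL received 100 nL stock; score is relative to mean and SD of the test wells; the first replicate is given; strong numbers were not always called active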
# CapD inh = inhibitors of Bacillus anthracis CapD enzyme; purified CapD enzyme, fluorescence intensity read-out; hits give low values; some hits fall short of the stated cut; z-score (concentration not given with the values); hit rate 0.23% among 140,000; AID 492967;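 active = z-score under -4 in either of two replicates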;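 also: stock transfer was 100 nL into about 40 µL; score is relative to mean and spread of the plate; one replicate is shown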
# Starred values were filed as active, the others as inactive; i = inactive; . = not tested or not shown.
Structure	AID504770	CapD inh
O=C(CN(c1ccc(F)cc1)S(=O)(=O)c1ccc2c(c1)OCCO2)N1CCN(Cc2ccc3c(c2)OCO3)CC1	-0.95	-0.81
O=S(=O)(c1cccc2cccnc12)N1C=CC(C(F)(F)F)=NCC1	-0.3	-0.24
COC(=O)C1C(=O)NC(SCC(=O)Nc2ccccc2C)=C(C#N)C1c1ccccc1Cl (stereo not given)	.	-0.26
COCc1nc2ccc(C)cc2c2c1C(=O)N(CC(=O)Nc1ccc3ccccc3c1)C2=O	.	0.4
CC(C)=CC(=O)ON1C(=O)C2C3C=CC(O3)C2C1=O (stereo not given)	0	0.63
Cc1ccc(-n2nnc3c(=O)oc4ccccc4c32)cc1	-0.5	0.05
Cc1ccccc1CN1CCN(CCOCCO)CC1	0.05	0.34
O=C1NC(=O)N(Cc2ccccc2Cl)C(=O)/C1=C/N1CCCCC1	-0.25	-0.43
CCN(CC(=O)Nc1cc(C)on1)c1cccc2ccccc12	0.15	.
O=C(OCCN1CCN(c2ccc(C(F)(F)F)cn2)CC1)N1CCC(O)(Cc2ccccc2)CC1	.	-0.61

# Later entries.
Structure	AID504770	CapD inh
Cc1noc(C(=O)N2CCC(Cc3ccccc3)CC2)c1Cl	-1.1	0.17
COc1ccc(C(C)C)cc1S(=O)(=O)N1CCCC1	0.1	-0.5
CCCc1n(CC(O)COc2ccccc2C)c2ccccc2[n+]1C (stereo not given)	-0.15	-0.57
O=C(Nc1cccnc1)c1nc2ncccn2n1	0.25	0.29
CCCCCCOCCOCCOC(=O)N1CCN(C(c2ccccc2)c2ccc(Cl)cc2)CC1 (stereo not given)	.	-0.61
Cc1ccc2oc(=O)c3cc(C(=O)NC4CC4)sc3c2c1	-0.05	1.3
CN(C)c1c(F)cc(C(N)=O)cc1F	1.1	0.65
CC1CN=C(c2cccn2Cc2ccc(F)cc2)O1 (stereo not given)	-0.4	-0.67
CN(C)Cc1c(O)ccc2c(=O)c(-c3ccccc3Cl)coc12	0	81
CN(CCC#N)C(=O)c1cc(-c2cccs2)nc2ccccc12	1.1	80

# Remaining list, next part:
Structure	AID504770	CapD inh
CS(=O)(=O)/C(C#N)=C/c1ccc(OCc2cc(F)cc(F)c2)cc1	-0.45	-1.2
CCOC(=O)c1c(-c2ccccc2)oc2ccc(OC(=O)c3ccccc3OC)cc12	.	45
COc1ccc(C2Sc3ccccc3N2S(C)(=O)=O)cc1 (stereo not given)	0.35	.
Cc1ccc(-c2nc(C(=O)N(C)c3cc(C)ccc3C)c3n2CCCCC3)cc1	-1	1.8
COC(=O)c1ccc2c(c1)N(Cc1cccc(C(F)(F)F)c1)C(=O)CS2	.	-0.18
COC(=O)c1c(N)oc2c(-c3ccc(C)cc3)c3c(C(=O)OC)c(N)oc3cc12	1.2	19
N/C(=N\C(=S)Nc1cc(Cl)ccc1Cl)c1ccccc1	-0.25	-1.6
Cc1ccc(SCC(=O)c2cc(C)c(OC(=O)N(C)C)c(C)c2)cc1	.	-0.055
Cc1ccc(S(=O)c2nc(C)cc(C)c2S(=O)(=O)c2ccc(C)cc2)cc1 (stereo not given)	.	-0.14
CN1C(=O)S/C(=C\c2ccc(-c3ccc(C(=O)O)c(Cl)c3)o2)C1=O	0.4	0.095

# Reformatted with two lines to a compound: part of the list above.
# Order of results – AID504770 | CapD inh
COC(=O)c1ccc2c(c1)N(Cc1cccc(C(F)(F)F)c1)C(=O)CS2
 : . | -0.18
CS(=O)(=O)/C(C#N)=C/c1ccc(OCc2cc(F)cc(F)c2)cc1
 : -0.45 | -1.2
Cc1ccc(S(=O)c2nc(C)cc(C)c2S(=O)(=O)c2ccc(C)cc2)cc1 (stereo not given)
 : . | -0.14
COc1ccc(C2Sc3ccccc3N2S(C)(=O)=O)cc1 (stereo not given)
 : 0.35 | .
COC(=O)c1c(N)oc2c(-c3ccc(C)cc3)c3c(C(=O)OC)c(N)oc3cc12
 : 1.2 | 19
Cc1ccc(-c2nc(C(=O)N(C)c3cc(C)ccc3C)c3n2CCCCC3)cc1
 : -1 | 1.8
N/C(=N\C(=S)Nc1cc(Cl)ccc1Cl)c1ccccc1
 : -0.25 | -1.6

# The list continues.
Structure	AID504770	CapD inh
O=C(Cn1nnc2ccccc21)N/N=C1\CC(c2ccccc2)Oc2ccccc21 (stereo not given)	-2	.
CC(C)C(=O)Nc1c(C(=O)Nc2ccc3c(c2)OCO3)oc2ccccc12	1.4	.
O=C(Cn1cnc2c(nnn2-c2cccc(Cl)c2)c1=O)N1CCCc2ccccc21	-0.65	0.36
Cc1nc(N2CCOCC2)c2c(C)c(C(=O)Nc3ccc(C(F)(F)F)cc3)sc2n1	.	1.6
CSc1sc(C(=O)NNC(=O)OCCN2CNC(=S)NC2)cc1-c1nc(C)cs1	.	1
O=C(Oc1ccc(Oc2ccccc2)cc1)N1CCC(OC(=O)n2ccnc2)CC1	1.5	-0.035
Cc1c(C)c(C)c(CSC(=N)CC#N)c(C)c1C	.	0.78
COc1cccc(C(=O)Nc2cc(F)cc(F)c2)c1	-1.1	-0.89
CCOC(=O)c1c(NC(=O)c2cccc(C)c2)sc(C(=O)Nc2cc(C(F)(F)F)ccc2Cl)c1C	.	0.36
O=C(Cn1cnc2c(nnn2Cc2ccccc2)c1=O)N1CCCC1	1.7	.

# Next results follow:
Structure	AID504770	CapD inh
CCOC(=O)c1cnn(-c2ccccc2)c1NC(=O)Nc1ccccc1	-0.35	-0.14
COC(=O)N1c2ccccc2C=CC1C#N (stereo not given)	0.2	0.01
Cc1cccc(N2CCN(C(=O)C(Cc3ccccc3)NC(N)=O)CC2)c1C (stereo not given)	-0.55	.
CCN=C1SC(C(=O)Nc2ccc(OCC)cc2)CC(=O)N1CC (stereo not given)	-0.9	0.075
CNC(=O)Cn1c2ccccc2c2nc(=O)cc(C)n21	-0.45	3.9
COc1ccc(Cl)cc1C(=O)CSc1cc(C)c2ccccc2n1	0.9	-0.12
CCCCNS(=O)(=O)c1cnn(CC)c1	0.55	1.2
Cc1noc(C)c1C(=O)O/N=C(\N)Cn1ccc(C(F)(F)F)n1	0.3	0.7
O=C(/C=C/c1ccco1)NNC(=O)OCCOc1ccc2ccccc2c1	.	-0.48
COC(=O)C(Cc1ccccc1)NC(=O)c1ccc(C#N)cc1 (stereo not given)	-0.15	.

# Further entries follow:
Structure	AID504770	CapD inh
O=C(NCc1ccccc1Cl)C(Cc1ccccc1)n1cccc1 (stereo not given)	-0.35	-0.2
O=S(=O)(NCCN1CCOCC1)c1cccs1	-1.3	1.1
CC(Oc1cc(Cl)ccc1Cl)C(=O)N1CCc2ccccc21 (stereo not given)	2	0.065
O=C(CCC(=O)c1cccs1)Nc1ccc2c(c1)OCO2	1.1	.
CC(C)(C)CC(C)(C)NC(=O)c1ccccc1	-0.4	-0.05
O=C(O)c1cc(C(=O)O)c(=O)[nH]c1-c1ccc(Cl)cc1	.	0.28
Cc1ccc2c(c1)-c1c(sn(-c3ccc(C(F)(F)F)cc3)c1=S)C(C)(C)N2	.	-0.4
CCCCn1c(CNC(=O)c2ccco2)nnc1SC(C)C(=O)Nc1sc2c(c1C(=O)OCC)CCC2 (stereo not given)	1.4	-0.68
O=C(O)CC(CC(=O)Oc1ccccc1N1CCCC1)c1ccccc1 (stereo not given)	.	-0.43
Cc1c(C)c(C)c(CSc2cccc(NC(=O)/C=C/C(=O)O)c2)c(C)c1C	-0.85	-0.02

# Remaining list, next part:
Structure	AID504770	CapD inh
COc1ccc(OC)c(S(=O)(=O)c2cc3ccccc3oc2=O)c1	-1.1	0.6
COc1ccc(CC(NC(C)=O)C(=O)O)c(Cl)c1OC (stereo not given)	1.4	-0.48
Cc1ccc(C)c(S(=O)(=O)n2nnc3ccccc32)c1	-1.2	.
COc1ccc(OC)c(N=C(N)N=C(N)N)c1	-0.75	0.57
O=C(COCc1nc(-c2cnccn2)no1)NCc1ccc(Cl)cc1	.	-0.15
Cc1nc2cc(-c3ccccc3)nn2c(C)c1CCC(=O)NCc1ccccc1	-0.3	9.6
CC(C)NC(=O)Cn1cnc2ccccc2c1=O	1.5	.
Cc1ccc(Nc2cc(N(C)C)c3noc4c3c2C(=O)c2ccccc2-4)cc1	.	0.3
COc1ccc(OC)c(NC(=O)COc2ccccc2)c1	0.1	0.33
Cc1cc(-c2csc(-c3ccc(O)cc3)n2)c(C)n1C1CC1	0.8	.

# The last two records of the part before come first, to join the parts:
Structure	AID504770	CapD inh
COc1ccc(OC)c(NC(=O)COc2ccccc2)c1	0.1	0.33
Cc1cc(-c2csc(-c3ccc(O)cc3)n2)c(C)n1C1CC1	0.8	.
COc1cc2c(cc1OC)-c1cc3ccc(OC)c(OC)c3c[n+]1CC2	0.1	-0.075
CC(=O)Nc1ccc(F)cc1NC=C(C#N)C#N	0.8	-1.3
NC(=O)Nc1ccc(F)cc1F	-0.8	0.97
Cc1ccc(-c2cc(Cc3ccccc3)c(=O)[nH]n2)cc1	-0.4	1.7
CCCCC(=O)NC1=C(C(=O)OC)SCC1	0.3	i
COc1ccc(C(=O)N/N=C/c2cccc(OCc3ccccc3)c2)cc1OC	.	0.22
CN1CCN(S(=O)(=O)c2ccc(SCC(=O)NC3CCCCC3)cc2)CC1	1.4	-0.095
CC1=C(C(=O)OCCc2ccccc2)C(c2cccc(Cl)c2Cl)CC(=O)N1 (stereo not given)	.	-0.4
O=C(NCc1cccc(C(F)(F)F)c1)c1ccc(-n2cc(-c3cnccn3)cn2)cc1	.	7.7
CCOC(=O)c1nc2c(o1)NC(N)=C(C#N)C2c1ccc(Cl)cc1 (stereo not given)	0.7	-0.07

# Next part:
Structure	AID504770	CapD inh
CC(=O)Nc1cccc(NC(=O)CCn2cnc3cc(C)c(C)cc32)c1	-0.4	.
FC(F)(F)c1cc(-c2nnc(N3CCOCC3)o2)cc(C(F)(F)F)c1	-0.35	69
c1ccc2c(c1)nc(Nc1ccc(N3CCCCC3)cc1)c1nncn12	3.1	-1.9
O=C(NN=Cc1ccccc1[N+](=O)[O-])c1ccc(OC(F)(F)F)cc1	.	-0.81
CCN(c1cccc(C)c1)S(=O)(=O)c1ccc2c(c1)SC(C)C(=O)N2 (stereo not given)	-1.6	-0.12
O=C1CC2CCC(CN1)N2CC(=O)N1c2ccccc2Sc2ccc(C(F)(F)F)cc21 (stereo not given)	1.1	.
Cc1cc(C)c(C#N)c(SCCN2C(=O)c3ccccc3C2=O)n1	1.1	.
Cc1cc(C(=O)O/N=C(\N)c2ccccc2)nn1C(C)(C)C	-0.9	0.33
CSc1c(C#N)c(N)nc(SCC(=O)c2ccccc2)c1C#N	0.25	0.01
CC(=O)c1c(C)oc2ccc(N(C(=O)c3ccc(Cl)cc3)S(=O)(=O)c3ccccc3)cc12	.	0.18

# Next section:
Structure	AID504770	CapD inh
O=C(N/N=C1/CC(c2ccccc2)Oc2ccccc21)C1CC1 (stereo not given)	-0.85	.
Cc1cc2nc(SCC(=O)NN)[nH]c2cc1C	-0.5	2.6
CC(C)CN(Cc1cc(C(C)(C)C)c(O)c(C(C)(C)C)c1)CC(C)C	.	-0.59
CCC(C)C(=O)O[C@H]1C[C@H](O)C=C2C=C[C@H](C)[C@H](CC[C@@H](O)C[C@@H](O)CC(=O)O)C21 (stereo not given in full)	-1.4	.
c1ccc(-c2csc3ncnc(N4CCCC4)c23)cc1	-0.45	-0.34
CN(C)c1cc(C(=O)NCCc2ccccc2)nc(N(C)C)n1	.	3.6
COc1ccc2c(Cl)c(C(=O)Oc3ccccc3Cl)sc2c1	0.85	14
Cc1c(N=Nc2c(O)[nH]c(=S)[nH]c2=O)c(=O)n(-c2ccccc2)n1C	-0.35	.
Cc1ccccc1NC(=O)CCC(=O)Nc1ccccc1C	-0.05	-0.005
CCCNS(=O)(=O)c1ccc(OCC(=O)N2CCCCC2)cc1	0.3	.

# The list goes on:
Structure	AID504770	CapD inh
CC(=O)N1CCc2cc(NS(=O)(=O)c3ccc4oc(=O)ccc4c3)ccc21	.	0.03
CCN1CCN(C(=O)c2sc3ncnc(N4CCN(c5ccccn5)CC4)c3c2C)CC1	.	-1.6
c1ccc2oc(NC3=NCN(CCCN4CCOCC4)CN3)nc2c1	-0.65	.
CC(C)Cn1c(=O)c2sccc2n2c(=S)sc(-c3ccccc3)c12	-1	0.15
O=C(CSc1ncnc2sc(-c3ccccc3)cc12)N1CCOCC1	0.6	3.2
O=C(N/N=C/c1csc([N+](=O)[O-])c1)c1cc(C2CC2)nc2ccccc12	.	0.025
CN(Cc1ccccc1)Cc1ccccc1F	-0.45	-0.15
O=C(NC1CCCCCCC1)c1ccc(NC2=NC3CS(=O)(=O)CC3S2)cc1 (stereo not given)	-0.65	0.34
CCOC(=O)c1ccc(Nc2nc(-c3cc4cc(Br)ccc4oc3=O)cs2)cc1	.	0.7
Cc1c(O)ccc2c(=O)c(-c3ccc4ccccc4n3)coc12	-0.35	0.11

# Remaining list, next part.
Structure	AID504770	CapD inh
COC(=O)C1=C(N)OC2=C(C(=O)CC(C)(C)C2)C1c1cccc(Br)c1 (stereo not given)	.	-0.45
CC(C)Cc1cc(C(=O)Nc2cccnc2)no1	-0.1	0.11
CCCCn1nc(C(=O)N/N=C/c2ccccc2OCC(=O)O)c2ccccc2c1=O	0.05	.
Cc1ccccc1Cn1c(CNC(=O)C(C)(C)C)nc2ccccc21	0.15	-0.26
CCc1cccc(NC(=S)N(CCN(C)C)C2CCN(C(C)C)CC2)c1	-1	0.13
CCOc1ccsc1C(=O)NNC(=O)OCc1ccccc1Br	.	-0.32
COc1ccc(Cc2noc(C(c3ccccc3)C3CCCC3)n2)cc1OC (stereo not given)	.	0.52
C=C1c2ccccc2N=C(SCC(=O)Nc2ccc(F)cc2F)N1C	0.2	.
Cc1nn(-c2ccccc2)c(C)c1CN1CCC(NS(=O)(=O)c2ccc(Br)s2)C1 (stereo not given)	.	0.34

# Assay outcomes as filed in PubChem.
